FGF22 binding: binders of recombinant human FGF22 by thermal shift; Q9HCT0; SYPRO orange fluorescence; percent of sucrose octasulfate shift, DMSO zero; calls only at 9.99 µM; actives 1.5% (n = 340,000); AID 651658;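 active means melting point raised past a set limit in the mean and every replicate; three in four hits are not shown here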
Target sequence (Q9HCT0 whole entry, looked up): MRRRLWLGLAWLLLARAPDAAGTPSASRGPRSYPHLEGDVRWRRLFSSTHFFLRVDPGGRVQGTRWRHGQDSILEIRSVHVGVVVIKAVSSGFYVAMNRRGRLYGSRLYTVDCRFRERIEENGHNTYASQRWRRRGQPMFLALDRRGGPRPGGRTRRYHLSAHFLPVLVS
Calls only.

C[C@@H]1CN([C@@H](C)CO)C(=O)c2cc(NS(=O)(=O)c3ccc(F)cc3)ccc2O[C@@H](C)CCCCO[C@@H]1CN(C)C(=O)CCCN(C)C was read as FGF22 binding inactive.
For Cn1cnc(S(=O)(=O)N2CC[C@@H]3[C@@H](CO)Nc4ccc(-c5ccccc5F)cc4[C@@H]32)c1 the results were FGF22 binding inactive.
For C/C=C/c1ccc([C@@H]2[C@@H](CO)N3CCCCN(CCC(F)(F)F)C[C@@H]23)cc1 the results were FGF22 binding inactive.
C[C@H](CO)N1C[C@H](C)[C@@H](CN(C)C(=O)CN(C)C)Oc2cc(C#Cc3ccccc3)ccc2S1(=O)=O was read as FGF22 binding inactive.
COc1ccc(CN(C)C[C@H]2Oc3ccc(NC(=O)Nc4cccc5ccccc45)cc3CC(=O)N([C@@H](C)CO)C[C@@H]2C)cc1 was read as FGF22 binding inactive.
Cc1ccc(S(=O)(=O)N(C)C[C@@H]2Oc3ccc(NC(=O)CCCCCC(=O)Nc4ccccc4N)cc3CC(=O)N([C@H](C)CO)C[C@@H]2C)cc1 was read as FGF22 binding inactive.
`C[C@@H]1CN([C@H](C)CO)C(=O)c2cc(NS(=O)(=O)c3ccc(Cl)cc3)ccc2O[C@@H](C)CCCCO[C@@H]1CN(C)C(=O)c1ccccc1` gave FGF22 binding inactive.
`COc1ccc(CNC(=O)C[C@@H]2C=C[C@@H](NS(=O)(=O)c3cccc(OC)c3)[C@H](CO)O2)cc1` gave FGF22 binding inactive.
Screening C[C@@H](O)C#Cc1ccc([C@@H]2[C@@H](CO)N3CCCCN(S(=O)(=O)c4ccccc4)C[C@@H]23)cc1 returned FGF22 binding inactive.
C[C@@H](NC(=O)[C@@H]1N[C@@H]2c3ccc(-c4ccncc4)c(=O)n3C[C@@H]2[C@H]1CO)c1ccccc1 was read as FGF22 binding inactive.
`OC[C@H]1[C@H](c2ccc(C#CC3CCCC3)cc2)[C@@H]2CN(CCC(F)(F)F)CCCCN12` gave FGF22 binding inactive.
Screening Cc1ccc(S(=O)(=O)Nc2ccc3c(c2)C(=O)N(C)[C@H]2CC[C@H](CC(=O)O)O[C@@H]2CO3)cc1 returned FGF22 binding inactive.
CN1C(=O)c2cc(NC(=O)C3CC3)ccc2OC[C@H]2O[C@H](CC(=O)NCC3CCCCC3)CC[C@@H]21 was read as FGF22 binding inactive.
`CO[C@H]1CN(C)C(=O)c2ccc(NC(=O)c3ccccc3)cc2OC[C@@H](C)N(C)C[C@H]1C` gave FGF22 binding inactive.
Screening CC(C)NC(=O)Nc1ccc2c(c1)C(=O)N([C@@H](C)CO)C[C@@H](C)[C@@H](CN(C)Cc1ccc3c(c1)OCO3)OCCCC[C@@H](C)O2 returned FGF22 binding inactive.
`C[C@H](CO)N1C[C@H](C)[C@@H](CN(C)Cc2ccc(C(F)(F)F)cc2)OCCCC[C@H](C)Oc2ccc(NC(=O)c3ccccc3)cc2C1=O` gave FGF22 binding inactive.
`C[C@@H]1CN([C@H](C)CO)S(=O)(=O)c2ccc(C3=CCCCC3)cc2O[C@@H]1CN(C)C(=O)c1ccccc1` gave FGF22 binding inactive.
Screening C[C@H]1CN([C@@H](C)CO)C(=O)c2cc(C#CC3CCCC3)cnc2O[C@@H]1CN(C)S(=O)(=O)c1cccc(F)c1 returned FGF22 binding inactive.
Screening CN1C(=O)c2cc(NC(=O)c3ccccc3Cl)ccc2OC[C@H]2O[C@@H](CC(=O)NCC(F)(F)F)CC[C@H]21 returned FGF22 binding inactive.
For C[C@@H]1CCCCO[C@H](CN(C)C(=O)CCC(F)(F)F)[C@H](C)CN([C@@H](C)CO)C(=O)c2cc(NS(=O)(=O)c3ccc(F)cc3)ccc2O1 the results were FGF22 binding inactive.
For C[C@@H]1CN([C@H](C)CO)C(=O)c2cc(NC(=O)CCN3CCOCC3)ccc2O[C@@H]1CN(C)C(=O)Nc1ccc(F)cc1 the results were FGF22 binding inactive.
COc1ccc2c3c([nH]c2c1)[C@@H](CO)N(C(=O)Nc1ccc(F)cc1)CC31CN(S(=O)(=O)c2cccc(C)c2)C1 was read as FGF22 binding inactive.
`C[C@@H]1CN([C@@H](C)CO)C(=O)Cc2cc(NC(=O)NC3CCCCC3)ccc2O[C@@H]1CN(C)C(=O)Nc1ccccc1` gave FGF22 binding inactive.
Screening COc1ccc(S(=O)(=O)N[C@@H]2CC[C@@H](CC(=O)N3CCC(Cc4ccccc4)CC3)O[C@H]2CO)cc1 returned FGF22 binding inactive.
C[C@H](CO)N1C[C@H](C)[C@@H](CN(C)S(=O)(=O)c2ccc(F)cc2)Oc2c(NC(=O)Nc3ccc(F)cc3)cccc2C1=O was read as FGF22 binding inactive.
`CO[C@H]1CN(C)C(=O)c2cc(NC(C)=O)ccc2OC[C@@H](C)N(S(=O)(=O)c2cn(C)cn2)C[C@@H]1C` gave FGF22 binding inactive.
C[C@H](CO)N1C[C@H](C)[C@H](CN(C)S(=O)(=O)c2cccs2)OCCCC[C@H](C)Oc2ccc(NC(=O)Nc3ccc4c(c3)OCO4)cc2C1=O was read as FGF22 binding inactive.
C[C@@H]1CCCCO[C@@H](CN(C)C(=O)Nc2ccccc2)[C@@H](C)CN([C@H](C)CO)C(=O)c2cc(NC(=O)CCC(F)(F)F)ccc2O1 was read as FGF22 binding inactive.
Screening C[C@@H]1CN([C@@H](C)CO)C(=O)c2ccccc2-c2ccccc2CO[C@@H]1CN(C)S(=O)(=O)CC(F)(F)F returned FGF22 binding inactive.
For CN(C)C(=O)c1ccc(-c2ccc3c(c2)[C@@H]2[C@@H](CCN2S(=O)(=O)c2cn(C)cn2)[C@@H](CO)N3)cc1 the results were FGF22 binding inactive.
CN1C(=O)c2cc(NS(=O)(=O)c3ccccc3F)ccc2OC[C@H]2O[C@H](CC(=O)NC3Cc4ccccc4C3)CC[C@@H]21 was read as FGF22 binding inactive.
COc1cccc(NC(=O)N2CC3(C2)[C@H](c2ccccc2)[C@@H](CO)N3C(=O)C2CCC2)c1 was read as FGF22 binding inactive.
For C=CCN1CC(COc2ccc(OC)cc2)OCCS1(=O)=O (stereo not drawn) the results were FGF22 binding inactive.
Screening C[C@H]1CN([C@@H](C)CO)C(=O)Cc2cc(NS(=O)(=O)c3cccs3)ccc2O[C@@H]1CN(C)C(=O)Nc1ccc(F)cc1 returned FGF22 binding inactive.
COCCNC(=O)C[C@@H]1CC[C@H]2[C@H](COc3ccc(NS(=O)(=O)c4ccc(Cl)cc4)cc3C(=O)N2C)O1 was read as FGF22 binding inactive.
Screening C[C@@H]1CCCCO[C@@H](CN(C)C(=O)C2CCCCC2)[C@H](C)CN([C@@H](C)CO)C(=O)c2cc(NC(=O)NC3CCCCC3)ccc2O1 returned FGF22 binding inactive.
OC(c1ccccc1)(c1ccccc1)C1CCN(CCCOc2ccc(C(F)(F)F)cc2)CC1 was read as FGF22 binding inactive.
For C[C@@H]1CN([C@@H](C)CO)S(=O)(=O)c2ccc(-c3cccc(C(=O)N(C)C)c3)cc2O[C@H]1CN(C)C(=O)Nc1ccccc1 the results were FGF22 binding inactive.
Screening N#C[C@H]1[C@@H](c2ccccc2)[C@H](CO)N1S(=O)(=O)c1ccc(-c2ccccc2)cc1 returned FGF22 binding inactive.
`CCCC(=O)Nc1ccc2c(c1)C(=O)N(C)[C@@H]1CC[C@H](CC(=O)NCC3CC3)O[C@H]1CO2` gave FGF22 binding inactive.
Screening Cc1noc(C)c1NC(=O)N(C)C[C@@H]1Oc2ccc(NC(=O)Nc3ccc(C(F)(F)F)cc3)cc2CC(=O)N([C@H](C)CO)C[C@H]1C returned FGF22 binding inactive.
For CO[C@@H]1CN(C)C(=O)c2cc(NS(C)(=O)=O)ccc2OC[C@H](C)N(C(=O)C2CCOCC2)C[C@@H]1C the results were FGF22 binding inactive.
Screening CO[C@@H]1CN(C)C(=O)c2cc(NC(=O)C3CCC3)ccc2OC[C@H](C)N(C)C[C@@H]1C returned FGF22 binding inactive.
CC(C)NC(=O)N(C)C[C@H]1Oc2ccc(NS(=O)(=O)c3ccc(Cl)cc3)cc2CC(=O)N([C@@H](C)CO)C[C@H]1C was read as FGF22 binding inactive.
For COc1ccc(NC(=O)Nc2cccc3c2O[C@H](CN(C)S(=O)(=O)c2ccc(Cl)cc2)[C@@H](C)CN([C@H](C)CO)C3=O)cc1 the results were FGF22 binding inactive.
For CC=Cc1ccc2n(c1=O)C[C@@H]1[C@@H](CO)[C@H](C(=O)NCCCN(C)C)[C@H]2N1C(=O)c1ccccc1F (mixture of isomers) the results were FGF22 binding inactive.
For C[C@H]1CN([C@@H](C)CO)C(=O)Cc2cc(NC(=O)Cn3cnnn3)ccc2O[C@H]1CN(C)CC1CCCCC1 the results were FGF22 binding inactive.
For Cc1noc(C)c1NC(=O)N(C)C[C@@H]1OCCCC[C@H](C)Oc2ccc(NC(=O)C3CCCCC3)cc2C(=O)N([C@H](C)CO)C[C@H]1C the results were FGF22 binding inactive.
Cc1ccc(S(=O)(=O)Nc2cccc3c2O[C@H](CN(C)Cc2ccccc2)[C@@H](C)CN([C@@H](C)CO)C3=O)cc1 was read as FGF22 binding inactive.
CCC(=O)Nc1ccc2c(c1)C(=O)N(C)C[C@H](OC)[C@@H](C)CN(C(=O)c1ccccn1)[C@@H](C)CO2 was read as FGF22 binding inactive.
O=C(C[C@@H]1C[C@H]2c3cc(NC(=O)CC4CC4)ccc3O[C@H]2[C@H](CO)O1)NCc1ccccn1 was read as FGF22 binding inactive.
CCCNC(=O)N(C)C[C@@H]1Oc2cc(Br)ccc2S(=O)(=O)N([C@H](C)CO)C[C@@H]1C was read as FGF22 binding inactive.
CN(C)CC(=O)Nc1ccc2c(c1)[C@H]1C[C@H](CC(=O)N(C)C)O[C@H](CO)[C@H]1O2 was read as FGF22 binding inactive.
CO[C@@H]1CN(C)C(=O)c2cc(NC(=O)c3ccccc3)ccc2OC[C@@H](C)N(C)C[C@@H]1C was read as FGF22 binding inactive.
`CCCN1[C@H](C(=O)N2CCCCC2)[C@@H](CO)[C@@H]2Cn3c(ccc(-c4ccccc4)c3=O)[C@@H]21` gave FGF22 binding inactive.
For COc1ccc(CNC(=O)C[C@H]2CC[C@@H](NC(=O)c3cccc(F)c3)[C@H](CO)O2)cc1 the results were FGF22 binding inactive.
Screening CC(C)NC(=O)N(C)C[C@@H]1Oc2ccc(NC(=O)CCN3CCOCC3)cc2CC(=O)N([C@H](C)CO)C[C@@H]1C returned FGF22 binding inactive.
Screening Cc1ccc(S(=O)(=O)Nc2ccc3c(c2)C(=O)N([C@@H](C)CO)C[C@H](C)[C@H](CN(C)C(=O)NC2CCCCC2)OCCCC[C@@H](C)O3)cc1 returned FGF22 binding inactive.
For COCC#Cc1cnc2c(c1)C(=O)N([C@@H](C)CO)C[C@@H](C)[C@H](CN(C)C(=O)c1ccc(F)cc1)O2 the results were FGF22 binding inactive.
C[C@@H]1CN([C@@H](C)CO)C(=O)Cc2cc(NC(=O)Nc3cccc4ccccc34)ccc2O[C@H]1CN(C)Cc1ccccc1 was read as FGF22 binding inactive.
Screening Cc1ccccc1-c1ccc2c(c1)O[C@H](CN(C)C(=O)C1CC1)[C@H](C)CN([C@@H](C)CO)S2(=O)=O returned FGF22 binding inactive.
Screening C[C@@H]1CN([C@@H](C)CO)C(=O)c2cccc(NS(=O)(=O)c3ccccc3)c2O[C@H]1CN(C)C(=O)Nc1ccc2c(c1)OCO2 returned FGF22 binding inactive.
Screening CO[C@H]1CN(C)C(=O)c2ccc(NC(=O)Nc3cccc(Cl)c3)cc2OC[C@H](C)N(C(=O)Nc2c(C)noc2C)C[C@@H]1C returned FGF22 binding inactive.
COCCNC(=O)[C@@H]1[C@@H](CO)[C@@H]2Cn3c(ccc(-c4ccc(F)cc4)c3=O)[C@H]1N2C(=O)NC(C)C was read as FGF22 binding inactive.
Screening COc1ccc2c3c([nH]c2c1)[C@H](CO)N(C(=O)C1CC1)CC31CCN(Cc2nccs2)CC1 returned FGF22 binding inactive.
Screening CO[C@H]1CN(C)C(=O)c2ccc(NC(=O)NC(C)C)cc2OC[C@H](C)N(CCC(F)(F)F)C[C@H]1C returned FGF22 binding inactive.
`O=C(C[C@H]1CC[C@@H]2[C@H](COC[C@@H](O)CN2S(=O)(=O)c2ccc(F)cc2)O1)N[C@H]1CCN(Cc2ccccc2)C1` gave FGF22 binding inactive.
Screening C[C@@H]1CN([C@@H](C)CO)C(=O)c2cc(NS(=O)(=O)c3ccc(F)cc3)ccc2O[C@@H](C)CCCCO[C@@H]1CN(C)S(=O)(=O)c1cn(C)cn1 returned FGF22 binding inactive.
For COCC(=O)Nc1ccc2c(c1)C(=O)N(C)C[C@@H](OC)[C@H](C)CN(C(=O)NC(C)C)[C@@H](C)CO2 the results were FGF22 binding inactive.

Only part of the results is shown (hit frequency here may not be typical).
